Screening data deposited in PubChem by National Center for Advancing Translational Sciences (NCATS).
SmPrx2 inh: blocks S. mansoni peroxiredoxin 2 enzymatic activity; S. mansoni Prx2 activity coupled to TGR/GSH (TGR is thioredoxin glutathione reductase), NADPH fluorescence loss, qHTS; some inactives read as strong as hits; Potency, µM; 0.07% of 65,000 active; AID 448; active means full or partial inhibition curve with a strong effect at the top dose; inconclusive means weaker partial or single-point curve; inactive means no accepted curve; also: series up to 57 µM; many of its hits are not listed in these tables
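Prx2 inhibition was measured as reduced NADPH consumption when electrons flowed from NADPH through TGR and glutathione to Prx2 and H2O2. Plates were read kinetically over 8 min; enzyme reagents were held at 4 deg C during dispensing.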
Anthrax LT inh: blocks cellular internalization of anthrax lethal toxin | AID 912 | 0.67% of 70,000 active | Potency, µM (top dose mostly 40 µM), without a hit: at the top dose activity change, negative = inhibition, most hits filed as inhibitors | Cells, anthrax lethal toxin internalization, FRET ratio (460/530); active = well fitted falling ratio curve with the 530 nm signal flat; inconclusive = other ratio curves, or a change in one channel alone; inactive = flat curves in the ratio and both channels; the % refers to the ratio; also: % is scaled to controls: 0 for no effect and ±100 for the full control effect; nearly all actives have a fitted effect of over 50% in size; tested in ME-180 cells; beta-lactamase reporter
* hit, by the source's call; ? = inconclusive; / = no result given; [ ] = another dose, or the depositor's remark. Potency is read from the fitted curve at half-maximal effect.

| Compound | SmPrx2 inh | Anthrax LT inh |
| --- | --- | --- |
| Cc1nc2ccc(N3C(=O)CCC3=O)cc2[nH]1 | / | 10% |
| Cc1nc(SCC(=O)c2c(C)[nH]c3ccccc23)c2c(=O)n(C)c(=O)n(CC(C)C)c2n1 | >57 | 2% |
| COc1cccc(OC)c1/C(O)=C(\C#N)c1nc2ccccc2[nH]1 | >57 | -17% |
| CCC(C)Sc1nc2c([nH]c3ccccc32)c(=O)n1C (centres undefined) | >57 | 5% |
| CCn1c(COc2ccccc2C)nnc1SCC(=O)NCc1ccccc1 | >57 | -17% |
| COc1ccc(C(=O)NC(C)c2nc3ccccc3[nH]2)cc1OC (centres undefined) | >57 | -1% |
| Cc1ccc(C)c2[nH]c(=O)c(CN(CCN3CCCC3)C(=O)Nc3ccc(F)cc3)cc12 | >57 | -20% |
| Cc1noc(C)c1CSCC(=O)N1CCN(c2ccc(F)cc2)CC1 | >57 | -8% |
| CN1CCN(S(=O)(=O)c2cccc(C(=O)N(c3ccccn3)C3CCCCC3)c2)CC1 | >57 | 23% |
| C1CCC(c2nn3c(-c4n[nH]c5c4CCC5)nnc3s2)CC1 | >57 | ? |
| CCOc1ccc(-c2[nH]ncc2-c2ccc(OC)c(OC)c2)c(O)c1 | >57 | ? |
| CC(C)Oc1ccc(C(=O)N2CCCC2C(=O)O)cc1 (centres undefined) | >57 | -9% |
| Cc1cc(C)nc(NS(=O)(=O)c2ccc(NC(=O)C3CC(=O)N(c4ccccc4)C3)cc2)n1 (centres undefined) | / | -4% |
| CCOc1cc(-c2nc3ccccn3c2NCC2CCCO2)ccc1O (centres undefined) | >57 | 14% |
| NS(=O)(=O)c1ccc(NC(=O)CSc2nnc(-c3cnccn3)n2-c2ccccc2)cc1 | >57 | -16% |
| O=C(O)[C@@H](O)[C@@H](O)[C@H](O)[C@H](O)CO | >57 | 4%[8 µM] |
| CC(=O)OC(C#CCN1CCOCC1)c1ccccc1 (centres undefined) | >57 | -2% |
| COc1ccc(NC(=O)CSc2nc3c(c(=O)n2-c2ccc(C)cc2)SCC3)c(OC)c1 | >57 | -4% |
| COc1ccc(CNC(=O)C(C)OC(=O)c2cccn2C)cc1 (centres undefined) | >57 | -2% |
| Cc1ccc(-c2noc(CN(C(=O)c3cccc(Br)c3)C(C)C)n2)cc1 | >57 | ? |
| CCCn1c(=N)n(CC(O)COc2cccc(C)c2)c2ccccc21 (centres undefined) | >57 | -15% |
| CC(C(=O)N=c1sc2ccccc2n1C)N1C(=O)C2CC=CCC2C1=O (centres undefined) | >57 | -6% |
| CCCN(C(=O)c1ccccc1N)c1c(C)n(C)n(-c2ccccc2)c1=O | / | -3% |
| Cc1cc(Cc2cc(C)cc(C(C)(C)C)c2O)c(O)c(Cc2cc(C)cc(C(C)(C)C)c2O)c1 | >57 | 3.2µM* |
| COc1ccc(-n2nc(C(=O)NCc3ccco3)c3c4ccccc4n(C)c3c2=O)cc1 | >57 | -1% |
| Cc1ccc2nc3c(cc(C#N)c(=N)n3CC3CCCO3)c(=O)n2c1 (centres undefined) | >57 | ? |
| O=C(O)c1ccc(Cl)c(S(=O)(=O)N2CCCCCC2)c1 | >57 | 2% |
| O=C(Cn1cnc2c(nnn2Cc2ccc(F)cc2)c1=O)N1CCCc2ccccc21 | >57 | 6% |
| Cc1cccc(C)c1NC(=O)Cn1cnc2c(=O)n(C)c(=O)n(C)c21 | >57 | 6% |
| CN1CCN(CCNC(=O)c2cc3c(=O)n(C)c4ccccc4c3n2C)CC1 | >57 | ? |
| Cn1c(SCC(=O)c2ccc(F)cc2)nnc1-c1cnccn1 | >57 | 1% |
| COc1ccc(S(=O)(=O)N2C3CCC2CC(NC(=O)C2CC2)C3)cc1 (centres undefined) | >57 | 0% |
| O=C(Nc1ccc2c(c1)OCCO2)C1CCN(S(=O)(=O)c2cccs2)CC1 | >57 | -2% |
| Cc1ccc(C(=O)CSc2nnc(CNc3nc(-c4ccccc4)cs3)n2C)cc1 | >57 | -26% |
| C=C(C)Cn1c(=O)c2c(nc3n2CCN3c2cccc(Cl)c2C)n(C)c1=O | >57 | ? |
| COc1cc(/C=C\C(=O)N2CCC=CC2=O)cc(OC)c1OC | >57 | ? |
| Cc1cccc(NCC(O)Cn2cnc3c2c(=O)n(C)c(=O)n3C)c1 (centres undefined) | >57 | ? |
| CC(C)(C)NS(=O)(=O)c1ccc(CCC(=O)N2CCCCC2)cc1 | >57 | -7% |
| CCc1c(O)nc(SCC(=O)Nc2ccc(C)cc2)n(C2CCCCC2)c1=O | >57 | -4% |
| CCOC(=O)c1cnc(N2CCOCC2)[nH]c1=O | >57 | 8% |
| O=C(CSCc1ccccc1)N1CCN(Cc2ccc3c(c2)OCO3)CC1 | >57 | -19% |
| COCc1cc(C)nc(Nc2cc(C)ccc2C)c1C#N | / | -14% |
| COc1ccc(Cn2nnnc2C(C(C)C)N2CCN(c3ccccc3OC)CC2)cc1 (centres undefined) | >57 | -17% |
| Cc1cc(N)c(-n2cc3c(=O)n(C)c(=O)n(C)c3c2)cc1C | >57 | 3% |
| O=C(CCSc1nnc(-c2ccncc2)o1)Nc1ccccc1 | >57 | 1% |
| Cc1ccc(S(=O)(=O)c2c(C)nn(C(C)(C)C)c2OC(=O)c2ccco2)cc1 | >57 | ? |
| COc1cc(C(c2sc3nc(C)nn3c2O)N2CCc3ccccc3C2)cc(OC)c1OC (centres undefined) | >57 | 3% |
| COc1cccc(Cn2c(=O)c(CCc3ccccc3)nc3cnc(OC)nc32)c1 | >57 | -12% |
| Brc1c(CSc2nncn2-c2ccccc2)nc2ncccn12 | >57 | -3% |
| CCN(CC)CCOC(=O)c1cccc(Cl)c1 | >57 | -7% |
| O=C(COC(=O)c1ccc(Br)c(S(=O)(=O)N2CCOCC2)c1)NCC1CCCO1 (centres undefined) | >57 | 1% |
| CC1(C)COCN1COC1CCCCC1 | >57 | -9%[8 µM] |
| COc1ccc(-c2nsc(SCC(=O)Nc3cc(C)on3)n2)cc1 | >57 | 9% |
| C[C@H](CO)NC(=O)[C@H](C)[C@@H]1C[C@@]1(C)[C@@H](NC(=O)OCc1ccccc1)c1ccccc1 | >57 | -4% |
| COc1cccc(-c2ccc(=O)n(CC(=O)NCCN3CCOCC3)n2)c1 | >57 | ? |
| CCOC(=O)C1CCN(CC(=O)Nc2c(C(=O)OC)[nH]c3ccc(Cl)cc23)CC1 | >57 | -20% |
| Cc1nnc(NC2=NCCC2)o1 | >57 | 4% |
| CCCc1nnc(SCC(=O)Nc2ccc(OCC)cc2)n1N | >57 | -23% |
| COc1ccccc1N=C(C)C1=C(O)CSC1=O | >57 | 20% |
| O=C(NCCCN1CCCC1=O)c1cccc(N2CCCC2=O)c1 | >57 | 4% |

Shown with each value named: three of the compounds above.
Brc1c(CSc2nncn2-c2ccccc2)nc2ncccn12
  SmPrx2 inh: >57; Anthrax LT inh: -3%

CCN(CC)CCOC(=O)c1cccc(Cl)c1
  SmPrx2 inh: >57; Anthrax LT inh: -7%

O=C(COC(=O)c1ccc(Br)c(S(=O)(=O)N2CCOCC2)c1)NCC1CCCO1 (centres undefined)
  SmPrx2 inh: >57; Anthrax LT inh: 1%

2 compounds drawn at random from those above, as already listed:
| Compound | SmPrx2 inh | Anthrax LT inh |
| --- | --- | --- |
| COc1cc(C(c2sc3nc(C)nn3c2O)N2CCc3ccccc3C2)cc(OC)c1OC (centres undefined) | >57 | 3% |
| O=C(NCCCN1CCCC1=O)c1cccc(N2CCCC2=O)c1 | >57 | 4% |

The listing continues.
| Compound | SmPrx2 inh | Anthrax LT inh |
| --- | --- | --- |
| CC(=O)N1C(C(=O)O)CSC1c1ccc(C)cc1 (centres undefined) | >57 | -8% |
| Cc1c(C(=O)N2CCN(C)CC2)oc2ccc(S(=O)(=O)N3CCOCC3)cc12 | >57 | 6% |
| Cn1cccc1C(=O)N1CCC2(CC1)CCN(c1cccc(-c3ccccc3)c1)CC2 | >57 | -12% |
| Cc1cc2nsnc2c(S(=O)(=O)NCC(=O)O)c1C | / | -3% |
| CCCc1cc(=O)[nH]c(SCC(=O)NC(=O)c2ccccc2)n1 | >57 | 8% |
| CCOc1ccccc1-n1nnnc1SCC(=O)Nc1cc(C)on1 | >57 | -2% |
| CCOc1ccc(OCC)c(NC(=O)C2CCCN2S(=O)(=O)c2cccc3cccnc23)c1 (centres undefined) | >57 | ? |
| COc1cccc(N2CCN(CC(=O)Nc3nnc(-c4ccccc4)s3)CC2)c1 | >57 | -12% |
| COc1ccc(N(CC(O)Cn2nnc3ccccc32)S(=O)(=O)c2ccc(C)cc2)cc1 (centres undefined) | >57 | -3% |
| CC(NC(=O)c1cn(C)c2ccc(S(=O)(=O)N3CCCC3)cc2c1=O)c1ccc2c(c1)OCCO2 (centres undefined) | >57 | ? |
| COc1cc(NC(=O)c2ccc(COCC(F)(F)F)o2)cc(OC)c1OC | >57 | 6% |
| CC(C)(C)C1=C(C#N)C(c2ccc3c(c2)OCO3)C(C#N)=C(N)O1 (centres undefined) | >57 | -7% |
| CCn1c2ccccc2c2nnc(SCc3ccc(C(=O)OC)o3)nc21 | >57 | -17% |
| CN=C1SC(CC(=O)Nc2ccc(N3CCOCC3)cc2)C(=O)N1C (centres undefined) | >57 | -19% |
| CC(=O)c1c(N2CCOCC2)nc(=S)n(-c2cc(C)ccc2C)c1C | >57 | 1% |
| C=CCN(CC=C)C(=O)Nc1cc(Cl)ccc1OC | >57 | -6% |
| O=C(NC1CCCCC1)C(c1ccco1)N(Cc1cccnc1)C(=O)C1COc2ccccc2O1 (centres undefined) | >57 | -11% |
| COc1cc2c(cc1NC(=O)COC(=O)Cn1cnc3ccccc31)oc1ccccc12 | >57 | -8% |
| C[C@@]12CC[C@H](O[C@@H]3O[C@H](CO)[C@@H](O)[C@H](O)[C@@H]3O)C[C@@H]1CC[C@H]1[C@H]2CC[C@@]2(C)[C@@H](C3=CCOC3=O)CC[C@]12O | >57 | -2%[8 µM] |
| CCCCC(C=O)NC(=O)C(CC(C)C)NC(=O)OCc1ccccc1 (centres undefined) | >57 | ? |
| Cc1ccccc1S(=O)(=O)Cc1ccc(C(=O)NCCCOC(C)C)o1 | >57 | / |
| COc1ccccc1NC(=O)c1cc2ccc(O)cc2o/c1=N\O | >57 | ? |
| c1cncc(-c2cc(-n3ccnc3)ncn2)c1 | >57 | ? |
| O=C(O)C1C2C=CC(C2)C1C(=O)NCCc1ccccc1 (centres undefined) | >57 | -16% |
| COC(=O)c1ccccc1N1C(=O)C2C(C1=O)C1C=CC2C12CC2 (centres undefined) | >57 | 0% |
| CCOC(=O)C1=C(C)NC(=O)C(C#N)C1c1ccncc1 (centres undefined) | >57 | -4% |
| CCCCN(C)CCCNC(=O)C1CC(=O)N(Cc2ccc(OC)cc2)C1 (centres undefined) | >57 | 6% |
| CCCS(=O)(=O)N1CCCC(C(=O)NCc2ccc3c(c2)OCO3)C1 (centres undefined) | >57 | -3% |
| COCCNC(=O)Cn1nc(C(F)(F)F)c(Cl)c1C | >57 | -6% |
| COc1ccc(-c2nnc(SCC(=O)Nc3ccc(Cl)cc3)n2C)cc1 | >57 | -2% |

Part of the list above, with values under each structure.
Below each SMILES – SmPrx2 inh, Anthrax LT inh
- COc1ccccc1NC(=O)c1cc2ccc(O)cc2o/c1=N\O
→ >57, ?
- CCCS(=O)(=O)N1CCCC(C(=O)NCc2ccc3c(c2)OCO3)C1 (centres undefined)
→ >57, -3%
- COc1ccc(-c2nnc(SCC(=O)Nc3ccc(Cl)cc3)n2C)cc1
→ >57, -2%
- O=C(NC1CCCCC1)C(c1ccco1)N(Cc1cccnc1)C(=O)C1COc2ccccc2O1 (centres undefined)
→ >57, -11%

Next structures:
| Compound | SmPrx2 inh | Anthrax LT inh |
| --- | --- | --- |
| Cc1c(=O)n(OCc2ccccc2)c2ccccc2[n+]1[O-] | / | -4% |
| COC(=O)c1c(NC(=O)c2ccc(S(=O)(=O)N3CCOCC3)cc2)sc2c1CCN(C)C2 | >57 | -9% |
| FC(F)(F)c1nc2ccc(SSc3ccc4nc(C(F)(F)F)[nH]c4c3)cc2[nH]1 | >57 | -10%[8 µM] |
| O=P(CN1CCN(c2ccccc2)CC1)(N1CCCCC1)N1CCCCC1 | >57 | -5% |
| Nc1c(Br)cc([N+](=O)[O-])cc1[N+](=O)[O-] | / | -3% |
| CC(C)(C)c1c2c(c(C(C)(C)C)c3c1OCN(Cc1ccccc1)C3)OCN(Cc1ccccc1)C2 | >57 | 0%[8 µM] |
| C=CCC(NCc1ccccc1)c1ccco1 (centres undefined) | >57 | 3% |
| CCOC(=O)N1CCC(Nc2ncnc3c2cnn3-c2ccc(C)cc2C)CC1 | >57 | 7% |
| CCCCC(CC)Cn1c(N)c(C#N)c2nc3ccccc3nc21 (centres undefined) | >57 | ? |
| COC(=O)CN(n1cnnc1)S(=O)(=O)c1ccccc1 | >57 | -5% |
| Cc1c(-c2ccccc2)sc(N)c1C(=O)N1CCOCC1 | >57 | -17% |
| COc1ccc(-n2c(=O)cnc3cnc(N4CCOCC4)nc32)cc1 | >57 | ? |
| Nc1nc2c(ncn2[C@H]2CC[C@@H](CO)O2)c(=O)n1C(=O)c1ccccc1 | >57 | 1%[8 µM] |
| CCOC(=O)CC1(CC(=O)OCC)NC(=O)c2c(C)sc(C(=O)OCC)c2N1 | / | -11% |
| CC(=O)OC[C@@H]1O[C@@H](O/N=C2/C[C@@H](O)[C@@H](O)[C@@H]3[C@@H]4C(=O)N(C5CCCCC5)C(=O)[C@H]4CC[C@H]23)[C@H](OC(C)=O)[C@H](OC(C)=O)[C@@H]1OC(C)=O | / | -17%[8 µM] |
| COC(=O)c1ccccc1NC(=O)C1CC(=O)N(C2CCCCC2)C1 (centres undefined) | >57 | -6% |

The list is partial. The share of hits here may be higher or lower than overall.
